D2 ag = human D2 receptor agonism in beta-arrestin assay | P14416 | DiscoveRx PathHunter D2 beta-arrestin, luminescence, 90 min; 100% = 57 uM dopamine signal | activation, % (concentration not given with the values) | actives 0.084% (n = 360,000) | AID 624465; in the data active = activation above about 40%; inconclusive = about 15% to 40%; inactive = below about 15%; note: compound concentration not given in the record; the text of the record calls up to 30% inactive
Target sequence (P14416 whole entry, looked up): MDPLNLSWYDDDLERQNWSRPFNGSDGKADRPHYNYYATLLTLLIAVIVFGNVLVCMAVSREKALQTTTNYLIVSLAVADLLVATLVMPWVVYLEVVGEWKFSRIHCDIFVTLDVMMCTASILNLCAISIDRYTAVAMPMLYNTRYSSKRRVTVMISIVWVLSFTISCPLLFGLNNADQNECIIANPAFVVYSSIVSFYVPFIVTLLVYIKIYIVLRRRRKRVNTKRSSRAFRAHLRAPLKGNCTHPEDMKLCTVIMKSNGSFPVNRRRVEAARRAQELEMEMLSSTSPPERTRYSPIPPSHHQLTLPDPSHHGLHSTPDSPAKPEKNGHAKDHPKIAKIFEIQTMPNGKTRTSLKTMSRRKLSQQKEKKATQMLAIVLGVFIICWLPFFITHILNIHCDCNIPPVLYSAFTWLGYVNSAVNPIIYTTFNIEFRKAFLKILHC
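Agonist mode: compounds alone added to overnight-plated D2 PathHunter cells for 90 min at 37 C, with 57 uM final dopamine (EC100) defining full response. Beta-arrestin recruitment detected by chemiluminescent reagent, read after 1 h at ambient temperature.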
CtBP-E1A inh = inhibitors of CtBP/E1A interaction. activity change, % (concentration not given with the values). AlphaScreen GST-E1A/His-CtBP binding, 1536-well; active compounds read low; control for the full effect not named in the record. actives 0.49% (n = 340,000); in the data active means activity change below about -65%; inconclusive means about -30% to -65%; inactive means above about -30%; note: % is set by controls: 0 for no effect and ±100 for the full control effect
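Steps: dispense buffer (Tris pH 8.0, NaCl 300 mM, TCEP 1 mM, BSA, Tween 20); add 5X protein mix (GST-E1A, His-CtBP, 125 nM each); pin 23 nL compound; 2 h at 37 °C, dark; add 5X beads (50 ug/mL); 1 h; read.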
Six1-Eya2 inh = inhibitors of human Six1/Eya2 interaction | Q15475+O00167 | AlphaScreen GST-Six1/His-Eya2 binding, biochemical; active compounds read low; control for the full effect not named in the record | actives 0.56% (n = 360,000) | activity change, % (concentration not given with the values); in the data active = activity change below about -65%; inconclusive = about -30% to -65%; inactive = above about -30%; note: % is set by controls: 0 for no effect and ±100 for the full control effect
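AlphaScreen with GST-Six1 and His-Eya2 (5X mix: 250 nM and 500 nM), glutathione donor and nickel acceptor beads; buffer 50 mM Tris pH 8.0, 300 mM NaCl, 1 mM TCEP; 1 h at 37 C in the dark.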
PINK1 modulator = modulators of PINK1 expression; PINK1 immunofluorescence, high-content cytometry, 24 h; Potency, µM (doses to about 76.6 µM), inactives show top-dose activation (PINK1 increase), usual class: activators; actives 0.2% (n = 410,000); active = well fitted activation curve with a large enough effect; inconclusive = small, poorly fitted or top-dose-only effect; inactive = flat fitted curve, though single readings scatter; cell line not stated here;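 note: potency is the fitted concentration of half-maximal effect; % of control where 0% means no effect; nearly all actives have a fitted effect of over 65% in size; a mitochondrial uncoupler was the plate control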
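Measures PINK1 amount and localization on or inside mitochondria by immunofluorescence. Stable cells get compounds at 5 concentrations for 24 hours before fixation and staining; CCCP controls included.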
TRPML1 agonist = agonists of human TRPML1 channel | actives 0.12% (n = 410,000) | AID 624414 | TRPML1-expressing cells, Ca2+ dye fluorescence, FDSS; host cell line not named in the record; reference of the full effect not given here | activation, % (test concentration not listed); in the data active = activation above about 50%; inconclusive = about 30% to 50%; inactive = below about 30%; note: 0% is about no effect; the text of the record puts the active cut at 80%
Target sequence (Q9GZU1 whole entry, looked up): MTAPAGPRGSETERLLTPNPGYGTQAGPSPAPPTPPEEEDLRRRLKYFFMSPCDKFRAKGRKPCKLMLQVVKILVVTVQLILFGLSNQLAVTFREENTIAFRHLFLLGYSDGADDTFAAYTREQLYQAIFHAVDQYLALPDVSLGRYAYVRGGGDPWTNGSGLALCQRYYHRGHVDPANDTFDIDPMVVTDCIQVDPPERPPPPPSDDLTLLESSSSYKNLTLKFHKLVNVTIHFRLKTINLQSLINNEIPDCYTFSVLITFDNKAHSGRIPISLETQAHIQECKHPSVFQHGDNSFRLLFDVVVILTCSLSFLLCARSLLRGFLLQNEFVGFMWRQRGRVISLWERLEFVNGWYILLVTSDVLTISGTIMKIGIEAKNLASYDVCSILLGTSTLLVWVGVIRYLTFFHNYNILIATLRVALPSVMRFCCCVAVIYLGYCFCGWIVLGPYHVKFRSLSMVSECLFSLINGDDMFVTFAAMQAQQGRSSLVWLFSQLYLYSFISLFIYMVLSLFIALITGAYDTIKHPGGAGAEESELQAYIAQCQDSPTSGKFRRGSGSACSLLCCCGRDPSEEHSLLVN
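Tet-induced TRPML1-DL cells, 1,500 per well, cultured overnight, were loaded with a no-wash Ca2+ dye for 45–90 min. Calcium fluorescence was recorded on the FDSS for 110 s after compound addition, before the EC80 agonist (4 uM 54-4) was added.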
D2 PAM = potentiates the human D2 dopamine receptor allosterically; P14416; DiscoveRx D2 beta-arrestin cells, luminescence, 90 min; 100% = 57 uM dopamine signal; potentiation, % (test concentration not listed); actives 0.23% (n = 360,000); active = potentiation of 50% or more; inconclusive = 30% to 50%; inactive = 30% or less;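 note: compound concentration not given in the record; tested on top of an EC20 dose of dopamine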
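PathHunter D2 cells, attached overnight at 37 deg C, received compound in DMSO plus dopamine at EC20 (50 nM final) for 90 min at 37 deg C. Beta-arrestin recruitment was read as luminescence after 1 h with detection reagent at ambient temperature.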
An asterisk follows results filed as active; ? = inconclusive; . = no result given; [ ] = dose if it differs, or a comment. Hits appear at their usual frequency; about 1.3% have a hit in one of these screens.

SMILES	D2 ag	CtBP-E1A inh	Six1-Eya2 inh	PINK1 modulator	TRPML1 agonist	D2 PAM
CC1CCN(c2ccccc2NC(=O)c2ccc([N+](=O)[O-])o2)CC1	1.7	-2	-8	3.5%	0.4	0
Cc1cc(=O)n2nc(N3CCCC(C(=O)NC(C)c4ccccc4)C3)sc2n1 (configuration not stated)	-1.5	9	-4	0.7%	-1.1	5
O=S1(=O)CC(N2CCCCC2)CN1CCc1ccccc1 (configuration not stated)	-2.6	1	6	-0.3%	-0.5	-7
Cc1c(NC(=O)C(C)OC(=O)c2cccnc2)c(=O)n(-c2ccccc2)n1C (configuration not stated)	-4.5	1	5	0.8%	-0.2	-1
CC1CCc2onc(C(=O)O)c2C1 (configuration not stated)	2.1	6	2	-0.4%	0.3	1
Cc1cccc(NC(=O)NC2(C)CCS(=O)(=O)C2)c1 (configuration not stated)	-2.7	6	-2	1.1%	0.6	4
COC(=O)C1=C(C(=O)OC)[C@@H]2N(Cc3ccccc3)c3ccccc3[C@@]23C[C@@H](C(=O)OC)N(C(=O)NC2CCCCC2)C3=N1	-0.8	-4	-14	0.0%	-0.2	-7
Cc1ccc2nc3c(cc(C(=O)NC4CCCC4)c(=N)n3C3CCCCC3)c(=O)n2c1	-3.0	0	6	20%	-0.5	-9
CCc1cccc(CC)c1NC(=O)COC(=O)CC1c2ccccc2CCN1S(=O)(=O)c1ccc(F)cc1 (configuration not stated)	-3.2	-19	-12	-1.2%	-0.3	-16
COC(=O)c1cc(NC(=O)CN2CCOCC2)cc(C(=O)OC)c1	-3.5	-4	-13	-2.1%	-0.4	5
CCOC(=O)[C@@H]1[C@H]2COc3ccc(Br)cc3[C@H]2N2C(=O)N(c3ccc(C)cc3)C(=O)[C@@]12C	6.0	4	3	-0.1%	0.5	1
Cc1ccc(NC(=O)C2CCN(S(=O)(=O)c3ccc4c(c3)NC(=O)C(C)S4)CC2)cc1Cl (configuration not stated)	-0.2	.	4	-0.8%	12	-1
COc1cccc(CC(=O)Nc2cc(C(F)(F)F)ccc2N2CCCC2)c1	-1.1	-7	-5	2.3%	2.1	-11
Cc1ccc(/C=C2/NC(=O)N(Cc3ccccc3)C2=O)o1	-2.8	4	-5	8.6%	0.7	-11
O=C(CCC(=O)OCC(=O)c1ccccc1)NC1CCCCC1	-2.5	-7	7	2.3%[38.3 µM]	2.7	-11
C/C(=N\NC(=O)c1sccc1C)c1cccnc1	1.1	4	1	-0.7%	-0.4	-12
COc1cccc(Nc2c(Nc3cccc(OC)c3)c(=O)c2=O)c1	-3.8	-8	2	3.9%	-0.7	-19
CC1(C)C2CCC1(C)C(Nc1ccccc1)C2 (configuration not stated)	-5.4	5	5	13%	.	-4
Cc1ccc(NC(=O)c2c(-c3ccccc3)noc2C)nc1	-3.1	-2	3	10%	-0.3	-9
Cc1nc(N2CCCCC2)c2c(C)c(C(=O)Nc3ccccc3C(F)(F)F)sc2n1	4.7	14	11	6.7%	1.3	-2
CC(C)[C@H](NC(N)=O)C(=O)NNC(=O)COc1cccc(C(F)(F)F)c1	-10.0	.	-1	-0.7%	0.0	6
Cc1nn(-c2ccccc2)c(C)c1/C=N/N1CCN(c2ccccc2)CC1	-1.1	-10	-10	-0.4%[38.3 µM]	1.9	-9
COc1ccc(C(=O)NCCCCCC(=O)N/N=C/c2ccco2)cc1OC	-1.9	-1	0	1.5%	0.7	-7
Cc1ccc(C)c(N2CCN(C(=O)CCCCn3c(=O)[nH]c4ccccc4c3=O)CC2)c1	0.9	2	-4	-3.6%	4.1	26
COc1ccc(NC(=O)COC(=O)CC2CCCCC2)cc1	9.4	4	2	0.9%	2.4	-1
COc1ccc(NC(=O)COc2ccc3c(c2)CCC3)cc1S(N)(=O)=O	11	-1	-1	-0.9%	-0.2	-5
O=C(/C=C/c1ccc(O)c(O)c1)c1ccc(S(=O)(=O)N2CCCCCC2)cc1	-3.2	20	-10	3.9%	1.4	-22
COc1ccccc1-n1c(SCC(=O)c2ccc(O)cc2O)nc2cc([N+](=O)[O-])ccc21	-1.9	-20	-25	?	1.8	15
O=S(=O)(c1ccc(F)cc1)N1CCCN(c2nccc(C(F)(F)F)n2)CC1	-1.8	15	20	0.9%	2.8	-6
Cc1ccc(C)c(NC(=O)COC(=O)c2c(-c3ccccc3)noc2C)c1	1.0	2	-4	0.8%	-0.5	-3
Cc1ccc(CCCOC(=O)C[N+]2(C)CCCC2)cc1	0.0	-2	-1	0.3%	0.3	8
CCC(=O)Nc1nc(C)c(C(=O)Nc2cccc(Cl)c2)s1	-3.7	7	-2	2.8%	-0.4	-16
CCN(C[C@H]1N[C@@](CC)(C(=O)OC)[C@H]2C(=O)N(C)C(=O)[C@@H]12)C(=O)c1ccccc1	-2.3	6	6	-1.3%	1.2	0
CCc1sc(C(=O)Nc2ccc3c(c2)OCO3)cc1C	2.6	-24	-16	-0.3%	0.3	-25
CCOc1ccc(C(=O)NN2C(=S)NC(C)(C)C=C2C)cc1	-12	-19	-14	2.1%	-0.3	-1
CCOc1ccc(NC(=O)c2cccc3ccccc23)cc1	-3.2	.	13	11%	0.2	-9
C[C@H](CO)N1C[C@H](C)[C@@H](CN(C)S(=O)(=O)c2cccs2)Oc2ccc(NS(=O)(=O)c3cn(C)cn3)cc2C1=O	-2.2	3	9	-0.3%	-0.2	-9
O=C(NCc1ccco1)C1CN(S(=O)(=O)c2ccccc2)CCN1S(=O)(=O)c1ccccc1 (configuration not stated)	8.5	-2	0	12%[38.3 µM]	-0.4	-4
Cc1ccc(-c2cc(C(=O)N3CCCc4ccccc43)no2)cc1	-1.1	1	5	1.8%	3.4	1
CC(C)Oc1ccc(C(=O)Nc2ccc3c(c2)n(C)c(=O)n3C)cc1	-2.5	5	-3	4.5%	0.0	-12
Cc1ccccc1NC(=O)CSc1nc2c(c(-c3ccco3)c1C#N)CCCC2	-2.0	45	0	9.6%[38.3 µM]	0.6	-5
CC(C)c1ccc(NC(=O)c2ccc3c(c2)CCN3S(C)(=O)=O)cc1	-2.8	4	3	8.0%	.	-12
CC/C(C)=C1\SC(N2CCN(C(C)=O)CC2)=NC1=O	-3.9	6	5	1.9%	-0.7	-8
COCC(=O)Nc1nnc(C2CCCCC2)s1	-3.5	-2	0	1.2%	-0.1	-8
Cc1ccc(S(=O)(=O)NN2C(=O)c3ccccc3NC2(C)C)cc1	-2.3	-17	4	0.1%	-0.6	1
CCCOc1ccc(C(CC(=O)O)NC(=O)C(c2ccccc2)c2ccccc2)cc1 (configuration not stated)	-6.1	13	1	3.1%	0.4	-25
Cc1ccccc1COC(=O)CCCC1=NS(=O)(=O)c2ccccc2N1	-11	-4	-1	1.0%	5.2	-14
CCC(=O)Nc1cccc(NC(=O)CSc2nnc(-c3ccc(NS(C)(=O)=O)cc3)n2CC)c1	-0.1	-3	0	-1.6%	0.2	-12

Profiles, quoted from the list. Values in the order: D2 ag	CtBP-E1A inh	Six1-Eya2 inh	PINK1 modulator	TRPML1 agonist	D2 PAM
CC(C)Oc1ccc(C(=O)Nc2ccc3c(c2)n(C)c(=O)n3C)cc1 is entered as -2.5	5	-3	4.5%	0.0	-12
COC(=O)C1=C(C(=O)OC)[C@@H]2N(Cc3ccccc3)c3ccccc3[C@@]23C[C@@H](C(=O)OC)N(C(=O)NC2CCCCC2)C3=N1 is entered as -0.8	-4	-14	0.0%	-0.2	-7
COc1cccc(CC(=O)Nc2cc(C(F)(F)F)ccc2N2CCCC2)c1 is entered as -1.1	-7	-5	2.3%	2.1	-11
O=C(/C=C/c1ccc(O)c(O)c1)c1ccc(S(=O)(=O)N2CCCCCC2)cc1 is entered as -3.2	20	-10	3.9%	1.4	-22
O=C(NCc1ccco1)C1CN(S(=O)(=O)c2ccccc2)CCN1S(=O)(=O)c1ccccc1 (configuration not stated) is entered as 8.5	-2	0	12%[38.3 µM]	-0.4	-4

Further records
SMILES	D2 ag	CtBP-E1A inh	Six1-Eya2 inh	PINK1 modulator	TRPML1 agonist	D2 PAM
CCCCOc1ccc(S(=O)(=O)N2CCCCC2)cc1	-4.7	13	24	-0.7%	2.5	-4
CCOc1ccc(N2C(=O)/C(=C/c3cc(OC)c(OC)c(OC)c3)N(CC(=O)OC)C2=S)cc1	-3.9	-2	-1	3.7%	0.4	-1
O=C1CC(Cc2ccccc2)C(=O)N1c1ncccn1 (configuration not stated)	0.4	0	-1	0.3%	0.0	3
O=C(CCC1CCCN(C(=O)c2cc3ccccc3o2)C1)NCc1ccc(F)c(F)c1 (configuration not stated)	3.3	2	1	-1.7%	4.7	-3
Cc1cc2nnc(SCC(=O)Nc3cccc(S(=O)(=O)N4CCOCC4)c3)n2c2ccccc12	0.4	?	?	-0.1%	0.6	-19
COc1ccc(-c2nc(NC(=O)Cn3cnnn3)sc2C)cc1	-1.7	0	1	-0.8%	-0.2	1
COc1ccc(Cc2nc3ccc(C(=O)NCC4COCCO4)cc3o2)cc1OC (configuration not stated)	0.0	-8	5	-0.8%	-0.6	0
Cc1csc2nc(CSc3ccc(Cl)cc3)cn12	-4.7	9	-7	1.3%	-0.5	24
COC(=O)c1sc(Nc2ccccc2)nc1C	1.2	-6	-2	.	-0.2	9
Cc1onc(-c2ccccc2)c1C(=O)NCc1ccc(Cl)cc1	0.8	3	16	5.8%	1.3	-4
Cc1cnc(C(=O)OCC(=O)N(CC(C)C)C2CCS(=O)(=O)C2)cn1 (configuration not stated)	-2.4	7	2	-1.4%	5.3	-10
COc1cc(C)ccc1OCc1cc(C(=O)N(C)CCCN2CCOCC2)no1	0.6	-14	1	1.2%	-0.4	-12
CN(C)NC(=S)Nc1ccc(Cl)cc1	0.4	-1	5	.	-0.5	-1
COc1cc(/C=C2/C(=N)N3C=CSC3=NC2=O)ccc1OCCCOc1cc(C)ccc1C	-3.5	-13	-3	-2.5%	2.8	18
Cc1ccc(NC(=O)Nc2ccccc2)nc1	-3.2	.	3	-0.5%	-0.7	-20
COc1ncnc2c1ncn2CCCNCc1ccccc1	-1.8	2	0	0.3%	.	.
CC1CN(CC(=O)Nc2cc(S(=O)(=O)N3CCCC3)ccc2Cl)CC(C)O1 (configuration not stated)	4.6	.	2	2.0%	0.6	-6
CCOc1ccccc1N1CCN(CC(=O)Nc2ccccc2C(=O)NC2CC2)CC1	2.0	-8	8	1.9%	1.4	-33

Arranged by count of non-hydrogen atoms (highest first): some entries from above
SMILES	D2 ag	CtBP-E1A inh	Six1-Eya2 inh	PINK1 modulator	TRPML1 agonist	D2 PAM
CCOc1ccccc1N1CCN(CC(=O)Nc2ccccc2C(=O)NC2CC2)CC1	2.0	-8	8	1.9%	1.4	-33
CC1CN(CC(=O)Nc2cc(S(=O)(=O)N3CCCC3)ccc2Cl)CC(C)O1 (configuration not stated)	4.6	.	2	2.0%	0.6	-6
COc1ncnc2c1ncn2CCCNCc1ccccc1	-1.8	2	0	0.3%	.	.

Bioassay records deposited in PubChem by National Center for Advancing Translational Sciences (NCATS).
